Sa RN4220 lethal: kills Staphylococcus aureus RN4220; inhibition, % (no concentration beside the values); S. aureus RN4220 growth, OD600, 16 h; 0.33% of 330,000 active; AID 1259311;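 active = z-score of -3 or lower and OD600 up to 0.18 on both plates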;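 also: plate controls were untreated cells for no effect and reference antibiotic for full effect; stock transfer was 100 nL into about 80 µL; one replicate is shown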
BJeLR viability: kills HRASV12-expressing BJeLR cells | BJeLR (HRASV12) viability, CellTiter-Glo ATP luminescence, 48 h; reference of the scale not given here | inhibition, % (no concentration beside the values) | 0.17% of 300,000 active;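 active = replicate mean above 50%; inconclusive = above 50% but judged a plate artefact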;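 also: 50 nL library stock added to about 25 µL; numbers are from one replicate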
Mtb hypoxia inh: Mtb hypoxia fluorescent reporter inhibition; M. tuberculosis hypoxia-regulated fluorescent reporter, fluorescence; fluorescence inhibition, % (no concentration beside the values); 0.1% of 300,000 active;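 active = 35 to 45% if threefold the growth effect, above 45% if 1.5-fold the growth effect; inactive = the rest, general growth blockers included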;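 also: wells of about 50 µL received 100 nL stock; 0% = vehicle wells and 100% = reference inhibitor wells; whole bacteria with a GFP reporter of the hypoxia response; strong numbers were not always called active; many hits fall short of the cut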
ugtP null kill: kills S. aureus RN4220 lacking UgtP. S. aureus RN4220 ugtP deletion, OD600 growth, 16 h; some inactives read as strong as hits. growth inhibition, % (test concentration not listed). 0.54% of 330,000 active. AID 1259309;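 active = z-score under -3 and OD600 up to 0.15 on both plates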;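 also: plate controls were untreated wells for no effect and antibiotic for full effect; wells of about 80 µL received 100 nL stock; the first replicate is given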
PrP UTR inh: suppresses PrP 5' UTR mRNA reporter expression | inhibition, % (concentration not given with the values) | cell-based PrP 5' UTR mRNA reporter, plate reader | 0.35% of 340,000 active;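 active = every replicate at 50% or more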;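 also: 0 = median of the neutral control wells; tested in H4 reporter cells; numbers are from one replicate; inactives centre near -14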
Bead autofluor: compound fluorescence in toxin protease inhibitor counterscreen. compound autofluorescence counterscreen, microsphere flow cytometry; stronger effect = higher value. fluorescence intensity (concentration not given with the values). 3.1% of 360,000 active;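 active = at least 3 SD above the mean of all compounds, about 16000 in these data; inconclusive = too few beads counted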;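 also: 100 nL of 1 mM stock went into each well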
Mtb hypoxia inh growth: further read-out of Mtb hypoxia inh, marked with its call; growth inhibition, %; measured here: M. tuberculosis growth (absorbance);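 0% = vehicle and 100% = reference antibiotic; read after six days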
The depositor's hits bear a star; ? = inconclusive; / = no result given; ! = a repeat was not active.

Start of the listing, in advance:
#1 COc1cc(SC)ccc1C(=O)Nc1cc(C)ccn1
#2 COc1ccc(C(Nc2ccc(S(=O)(=O)N3CCOCC3)cc2)C(=O)NCCC(C)C)cc1OC (stereo not given)
#3 CCCN(CC1CC1)C(=O)CSc1ncnc2sccc12
#4 CCOC(=O)C1=CN(Cc2ccco2)S(=O)(=O)N(CC)C1c1ccccc1 (stereo not given)
#5 CCN(CC)CCn1c(SCC(=O)NCc2ccco2)nc2c(sc3ccccc32)c1=O
#6 c1ccc(Nc2nc(N3CCCCC3)nc(N3CCNCC3)n2)cc1

entry no. | 1 | 2 | 3 | 4 | 5 | 6
Sa RN4220 lethal | 5.5 | 5.2 | 5.8 | 7.1 | 3.8 | -5.9
BJeLR viability | -0.4 | -8.3 | 5.3 | / | -0.6 | -3.2
Mtb hypoxia inh | -9.8 | 4.0 | 8.7 | 3.9 | 8.3 | 10.9
Mtb hypoxia inh growth | 7.8 | 4.3 | -0.2 | 5.2 | 11.8 | 22.1
ugtP null kill | 9.9 | 3.1 | 5.2 | 16.8 | 4.1 | 3.2
PrP UTR inh | -58.2 | -12.7 | 8.9 | 6.6 | -31.1 | -11.0
Bead autofluor | 2213 | 3772 | 5063 | 2902 | 10415 | 6147

The listing, previewed entries included:
#1 COc1cc(SC)ccc1C(=O)Nc1cc(C)ccn1
#2 COc1ccc(C(Nc2ccc(S(=O)(=O)N3CCOCC3)cc2)C(=O)NCCC(C)C)cc1OC (stereo not given)
#3 CCCN(CC1CC1)C(=O)CSc1ncnc2sccc12
#4 CCOC(=O)C1=CN(Cc2ccco2)S(=O)(=O)N(CC)C1c1ccccc1 (stereo not given)
#5 CCN(CC)CCn1c(SCC(=O)NCc2ccco2)nc2c(sc3ccccc32)c1=O
#6 c1ccc(Nc2nc(N3CCCCC3)nc(N3CCNCC3)n2)cc1
#7 COc1ccccc1N(C)S(=O)(=O)c1ccc(C(=O)N2CCC(C(N)=O)CC2)cc1
#8 Cc1ccc(S(=O)(=O)/N=C(/c2ccccc2)N2CCOCC2)c(C)c1

entry no. | 1 | 2 | 3 | 4 | 5 | 6 | 7 | 8
Sa RN4220 lethal | 5.5 | 5.2 | 5.8 | 7.1 | 3.8 | -5.9 | 0.3 | /
BJeLR viability | -0.4 | -8.3 | 5.3 | / | -0.6 | -3.2 | -6.3 | 8.4
Mtb hypoxia inh | -9.8 | 4.0 | 8.7 | 3.9 | 8.3 | 10.9 | -1.2 | /
Mtb hypoxia inh growth | 7.8 | 4.3 | -0.2 | 5.2 | 11.8 | 22.1 | 6.5 | /
ugtP null kill | 9.9 | 3.1 | 5.2 | 16.8 | 4.1 | 3.2 | -8.5 | /
PrP UTR inh | -58.2 | -12.7 | 8.9 | 6.6 | -31.1 | -11.0 | -28.4 | -8.6
Bead autofluor | 2213 | 3772 | 5063 | 2902 | 10415 | 6147 | 9066 | 4610

Structures from the list above containing an aryl thioether with sulfur outside any ring (three):
#1 COc1cc(SC)ccc1C(=O)Nc1cc(C)ccn1
#3 CCCN(CC1CC1)C(=O)CSc1ncnc2sccc12
#5 CCN(CC)CCn1c(SCC(=O)NCc2ccco2)nc2c(sc3ccccc32)c1=O

entry no. | 1 | 3 | 5
Sa RN4220 lethal | 5.5 | 5.8 | 3.8
BJeLR viability | -0.4 | 5.3 | -0.6
Mtb hypoxia inh | -9.8 | 8.7 | 8.3
Mtb hypoxia inh growth | 7.8 | -0.2 | 11.8
ugtP null kill | 9.9 | 5.2 | 4.1
PrP UTR inh | -58.2 | 8.9 | -31.1
Bead autofluor | 2213 | 5063 | 10415

The results go on.
#9 Cc1ccc(-c2nn(-c3cc(N4CCNCC4)ccc3[N+](=O)[O-])c(=O)c3ccccc23)cc1
#10 Cn1cccc1Cc1nnc(SCC(=O)N2CCCC2)n1CCc1ccccc1
#11 O=C(NCCSc1ccc(Cl)cc1)c1ccco1
#12 COc1cc(/C=N/N2CCN(Cc3ccc(Cl)cc3)CC2)ccc1OC(C)=O
#13 CC(NC(=O)C1CCCCC1)C(c1cccs1)N1CCOCC1 (stereo not given)
#14 CCOc1ccccc1NC(=O)CC1(CC(=O)N2CCOCC2)CCCC1
#15 Cc1ccc(N(CC(=O)NCc2ccccc2)C(=O)CCC(=O)Nc2nccs2)cc1
#16 COc1cc2ncnc(NCc3ccc(C)o3)c2cc1OC

entry no. | 9 | 10 | 11 | 12 | 13 | 14 | 15 | 16
Sa RN4220 lethal | -0.9 | 5.5 | 4.0 | / | -10.8 | 0.5 | 2.9 | 8.7
BJeLR viability | 5.0 | 2.5 | 0.6 | -3.0 | -11.2 | / | -6.4 | 5.8
Mtb hypoxia inh | 3.0 | / | -1.6 | / | 4.5 | 1.8 | 4.7 | 17.5
Mtb hypoxia inh growth | 6.9 | / | 4.8 | / | 9.9 | -1.5 | 6.7 | 14.7
ugtP null kill | -2.6 | -0.2 | -4.7 | / | -1.0 | -2.8 | 15.1 | 3.5
PrP UTR inh | 3.9 | -27.1 | -4.0 | -29.8 | -1.8 | -24.4 | -10.7 | -6.0
Bead autofluor | 2079 | 6216 | 21843* | 3893 | 6160 | 5642 | 5684 | 4417

#17 Oc1cccc2oc(=S)[nH]c12
#18 Cc1cccc(-c2c3c(=O)n(C)c(=O)n(C)c3cn2-c2ccccc2O)c1
#19 CC(=O)c1ccc(C(=O)NC2CCCN(Cc3ccc(Cl)cc3)C2)s1 (stereo not given)
#20 CC1CCN(c2c(NCC3CCC(C(=O)NCc4ccccc4)CC3)c(=O)c2=O)CC1 (stereo not given)
#21 CC1=CC(=O)OC2CC3OC4CC(C)C5OC6CC7O[C@]8(C)CC=CC9OC%10CC%11OC(CC(C)C%12OCCO%12)CC(O)[C@]%11(C)OC%10CC9OC8C[C@]7(C)O[C@]6(C)CCC5OC4C[C@]3(C)OC12 (stereo not given in full)
#22 COc1ccc(NC(=S)Nc2ccccc2)c(OC)c1
#23 CN(C)c1ccc(C(=S)NCc2ccco2)cc1
#24 CN1CC2C3C(=O)N(C)C(=O)C3[C@](Cc3ccccc3)(C1=O)N2C(=O)c1ccc(Cl)cc1 (stereo not given in full)

entry no. | 17 | 18 | 19 | 20 | 21 | 22 | 23 | 24
Sa RN4220 lethal | 2.6 | 4.5 | -1.3 | 0.8 | 6.6 | -2.0 | 1.1 | 5.5
BJeLR viability | / | 6.0 | -3.5 | 0.5 | / | -6.4 | 3.4 | /
Mtb hypoxia inh | 10.6 | -1.2 | 1.6 | -2.8 | 1.7 | 3.8 | / | 0.7
Mtb hypoxia inh growth | 24.6 | 7.2 | 4.4 | 4.7 | -4.3 | -6.4 | / | 7.6
ugtP null kill | -3.3 | 4.9 | 8.9 | 4.9 | 2.3 | 1.7 | 1.2 | -4.2
PrP UTR inh | -23.5 | -16.3 | -17.2 | -23.5 | / | -13.3 | -44.0 | /
Bead autofluor | 3826 | 4054 | 12648 | 6213 | / | 3130 | 3677 | /

#25 COc1ccccc1C(=O)Nc1ccc(S(=O)(=O)Nc2onc(C)c2C)cc1
#26 CCOc1ccc2nc(Nc3nc(CSc4nnnn4-c4ccccc4)cc(=O)[nH]3)nc(C)c2c1
#27 COc1ccc(-c2c3c(=O)n(C)c(=O)n(C)c3cn2C2CCCCC2)cc1
#28 CCn1cc(C(=O)O)c(=O)c2cnc(N3CCN(C(=S)NC(=O)c4ccc(OC)cc4)CC3)nc21
#29 CCC(C)Sc1ccc(-c2nc3cc(C)ccn3c2NC2CCCCC2)cc1 (stereo not given)
#30 O=C(NCc1ccc(Cl)cc1)C(=O)NCC1OCCCN1S(=O)(=O)c1cccs1 (stereo not given)
#31 Cn1c(=O)c(=O)n(C)c2cc(S(=O)(=O)NCCc3ccccc3)ccc21
#32 Cc1cc(C(=O)NCCC2=CCCCC2)c(C)o1
#33 Nc1c(Cl)ncnc1NN=Cc1ccnc2ccccc12
#34 CN1CCN(CC(=O)N2c3ccccc3Sc3ccccc32)CC1
#35 COc1cccc(NC(=O)CN(C)C(=O)c2ccc3[nH]c4c(c3c2)CC(C)CC4)c1 (stereo not given)

entry no. | 25 | 26 | 27 | 28 | 29 | 30 | 31 | 32 | 33 | 34 | 35
Sa RN4220 lethal | 3.1 | 5.2 | 3.2 | 46.4 | 8.7 | 3.3 | 2.1 | 6.0 | 1.4 | 3.3 | -1.5
BJeLR viability | 2.0 | -1.8 | 2.3 | 3.3 | / | -5.1 | -13.0 | -7.9 | / | -2.3 | /
Mtb hypoxia inh | 16.0 | 2.3 | 3.1 | 14.3 | -6.3 | 10.6 | 5.2 | 12.3 | -3.4 | 14.7 | -1.3
Mtb hypoxia inh growth | 8.3 | 16.5 | 2.9 | -1.3 | 6.7 | -2.4 | 14.6 | 4.1 | 4.0 | 1.1 | 6.4
ugtP null kill | 6.3 | -10.9 | 0.8 | 85.6* | 9.5 | -2.6 | 1.1 | 13.8 | -6.5 | 1.6 | -13.4
PrP UTR inh | -10.6 | -29.5 | 1.6 | -9.2 | -20.8 | 0.2 | -19.2 | -52.1 | / | -14.2 | -4.9
Bead autofluor | 4247 | 20506* | 5969 | 3927 | 20914*! | 5888 | 21307* | 16581* | / | 3578 | ?

Random draw from the library, and some 4% of all compounds hit somewhere here.
